# gsp ag – qHTS for Agonist of gsp, the Etiologic Mutation Responsible for Fibrous Dysplasia/McCune-Albright Syndrome: qHTS; gsp mutant cells, cAMP HTRF, 30 min; control for the full effect not named in the record; Potency, µM (highest dose often 76.9 µM), for the others: at the highest dose activation (cAMP increase), hits mostly activators; 0.13% of 340,000 active; AID 624287, 2012; active = well fitted activation curve with a large enough effect; inconclusive = small, poorly fitted or top-dose-only effect, or another doubt; inactive = no such curve, though single readings can be large or run the other way; cell line not stated here;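 also: phosphodiesterase inhibitor Ro 20-1724 added with compounds to block cAMP breakdown; potency is read from the fitted curve at half-maximal effect; nearly all actives have a fitted effect of over 60% in size; about a fifth of the inactives were tested at one dose only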
#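 Cells stably selected in G418 were plated at 2000/well, grown 16-24 hr, then given compounds in DMSO with the PDE inhibitor […] (300 uM solution added) for 30 min at 37C; cAMP was read by HTRF.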
# gsp antagonist – qHTS for Antagonists of gsp, the Etiologic Mutation Responsible for Fibrous Dysplasia/McCune-Albright Syndrome: qHTS | AID 624288, 2012 | Potency, µM (highest dose often 76.9 µM), for inactives: at the highest dose activity change, negative = inhibition, hits mostly inhibitors | gsp-mutant cells, cAMP HTRF, 30 min; control for the full effect not named in the record | 0.4% of 340,000 active; active = falling curve of any shape with a large fitted effect; inconclusive = falling curve, mostly with a smaller effect; inactive = flat or rising curve; cell line not stated here;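 also: intracellular cAMP measured with PDE inhibitor Ro 20-1724 present during compound exposure; potency is read from the fitted curve at half-maximal effect; % is scaled to controls: 0 for no effect and ±100 for the full control effect; nearly all actives have a fitted effect of over 65% in size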
#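 G418-selected cells were plated in DMEM/10% FBS for 16-24 h at 37C, then treated with compounds plus the PDE inhibitor […] (300 uM solution added) for 30 min at 37C. Intracellular cAMP was measured by HTRF after 30 min lysis at room temperature.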
# Menin MLL FP FL – qHTS Assay for Inhibitors Targeting the Menin-MLL Interaction in MLL Related Leukemias: Competition With Fluorescein Labeled MLL-derived Peptide. FP activity change, % at 61.4 µM. AID 1766, 2009. 290,000 tested, under 10 active. Fluorescence polarization, fluorescein-MLL peptide displacement from menin; inconclusive = falling polarisation curve, or a change in total fluorescence; inactive = total fluorescence flat and polarisation flat or rising; no compound was filed as active; the % refers to the polarisation; negative = inhibition;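 also: % of control where 0% means no effect; inhibitors lower the polarisation; unlabelled MLL peptide was the positive control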
# Sfp PPTase inh – qHTS Assay for Inhibitors of Bacillus subtilis Sfp phosphopantetheinyl transferase (PPTase). Biochemical Sfp PPTase activity, qHTS. Potency, µM, without a hit: max response, negative = inhibition, hits mostly inhibitors. 3.5% of 310,000 active; active = well fitted inhibition curve with a large enough effect; inconclusive = small, poorly fitted or top-dose-only effect, or another doubt; inactive = no such curve, though single readings can be large or run the other way;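 also: the enzyme is Sfp with the accession as filed and its product quenches rhodamine fluorescence; potency is read from the fitted curve at half-maximal effect; 0% = enzyme reaction without inhibitor and -100% = no enzyme wells; top concentration of the series not given in the record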
#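 Fluorescence-quenching assay with 15 nM Sfp, 5 uM rhodamine-CoA and 12.5 uM BHQ-2-labelled ybbR peptide in pH 7.6 Hepes/MgCl2 buffer. Enzyme was pre-incubated with compound for 15 min at room temperature. Rate was taken from the 30-min fluorescence change (525/598 nm).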
# PINK1 expr mod – A Quantitative High throughput Screen to Identify Chemical Modulators of PINK1 Expression | Potency, µM (highest dose often 76.6 µM), inactives show at the top dose activation (PINK1 increase), hits mostly activators | PINK1 immunofluorescence, high-content cytometry, 24 h | 0.2% of 410,000 active; active = well fitted activation curve with a large enough effect; inconclusive = small, poorly fitted or top-dose-only effect; inactive = flat fitted curve, though single readings scatter; cell line not stated here;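 also: potency is read from the fitted curve at half-maximal effect; % of control where 0% means no effect; nearly all actives have a fitted effect of over 65% in size; a mitochondrial uncoupler was the plate control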
#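 PINK1 protein, normally rapidly degraded, was detected by immunofluorescence after 24 hour compound treatment of a stable cell line. Titration data (5 concentrations) came from laser-scanning cytometry, with CCCP-treated wells as controls.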
# ClpP mod – qHTS Assay for Activators of ClpP | ATP-dependent Clp protease proteolytic subunit (Bacillus subtilis (strain 168)), P80244 | purified B. subtilis ClpP, FRET peptide cleavage, 20 min | Potency, µM (highest dose often 57.5 µM), for the others: at the highest dose activity change, negative = active | 1.9% of 340,000 active; active = well fitted falling curve with a large enough effect; inconclusive = small, poorly fitted or top-dose-only effect; inactive = no such curve, though single readings can be large or run the other way; also: potency is read from the fitted curve at half-maximal effect; the source files actives as falling curves though it sought activators and does not explain the sign; nearly all actives have a fitted effect of over 65% in size; many hits overshoot -100%
# Target sequence (P80244 whole entry, looked up): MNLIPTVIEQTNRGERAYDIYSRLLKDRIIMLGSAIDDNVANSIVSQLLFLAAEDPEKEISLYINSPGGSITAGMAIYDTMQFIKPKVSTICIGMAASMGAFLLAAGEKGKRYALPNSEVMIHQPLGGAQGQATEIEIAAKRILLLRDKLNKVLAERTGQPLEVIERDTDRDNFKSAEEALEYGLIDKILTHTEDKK
#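 FRET quenching reversal measured ClpP activation: 10 microg/mL B. subtilis ClpP at pH 8 with the FRET-FV decapeptide, read at 430 nm after 320 nm excitation. The 20-min minus 0-min signal was scaled between DMSO/no-enzyme wells and ADEP (5.8 microM final).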
# D2 ag – Beta-Arrestin HTS for Positive Allosteric Modulators of the Human D2 Dopamine Receptor: Agonists. activation, % (no concentration beside the values). D(2) dopamine receptor (Homo sapiens), P14416. DiscoveRx PathHunter D2 beta-arrestin, luminescence, 90 min; 100% = 57 uM dopamine signal. 0.084% of 360,000 active; in the data active = activation above about 40%; inconclusive = about 15% to 40%; inactive = below about 15%; also: compound concentration not given in the record; the text of the record calls up to 30% inactive
# Target sequence (P14416 whole entry, looked up): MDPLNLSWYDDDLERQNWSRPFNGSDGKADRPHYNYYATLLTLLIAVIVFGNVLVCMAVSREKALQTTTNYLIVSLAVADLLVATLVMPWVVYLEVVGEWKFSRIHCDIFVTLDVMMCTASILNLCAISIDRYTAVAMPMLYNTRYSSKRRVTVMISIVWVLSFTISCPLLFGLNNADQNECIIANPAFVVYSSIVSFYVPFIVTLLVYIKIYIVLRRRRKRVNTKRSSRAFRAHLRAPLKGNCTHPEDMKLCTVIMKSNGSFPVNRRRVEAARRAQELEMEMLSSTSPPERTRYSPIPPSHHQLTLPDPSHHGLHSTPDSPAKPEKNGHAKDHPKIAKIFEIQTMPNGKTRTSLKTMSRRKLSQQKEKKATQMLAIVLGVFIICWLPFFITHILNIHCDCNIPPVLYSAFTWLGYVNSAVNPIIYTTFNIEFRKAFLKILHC
#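 Agonist mode: compounds alone added to overnight-plated D2 PathHunter cells for 90 min at 37 C, with 57 uM final dopamine (EC100) defining full response. Beta-arrestin recruitment detected by chemiluminescent reagent, read after 1 h at ambient temperature.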
# Numbers without * were called inactive; ? = inconclusive; . = no result given; & = joins results of further samples; [ ] = remark or other dose.
SMILES,gsp ag,gsp antagonist,Menin MLL FP FL,Sfp PPTase inh,PINK1 expr mod,ClpP mod,D2 ag
Cc1cc(C)c2c(C)c(C(=O)Nc3c(C)n(C)n(-c4ccccc4)c3=O)oc2c1,-4%,-15%,1.5,0%,-2.0%,2.0%,-1.2
COc1ccc(C(O)c2nc(-c3ccncc3)cs2)cc1 (stereo not drawn),.,.,.,.,2.3%,-3.0%,7.5
COc1cccc(Cn2c(=O)c(-c3ccccc3)nc3cncnc32)c1,.,.,1.3,-17%,2.3%,.,.
CC1CCCN(C(=O)CN2C(=O)NC(C)(c3ccc4ccccc4c3)C2=O)C1 (stereo not drawn),3%,-5%,.,.,-0.3%,.,0.0
Cc1noc(C)c1C(=O)NCCCc1ccccc1,11%,-6%,-0.1,1%,14%[38.3 µM],-1.1%,-0.1
COC(=O)C[n+]1cccc2ccccc21,-12%[15.4 µM],9%,?,-5%,1.3%,.,-0.7
Cc1ccc(-n2nc(C)c(NC(=O)CCl)c2C)cc1,-13%,-16%,1.6,27%,0.7%,?,-2.0
CCCCN1C=CC(=C2N=c3cccc([N+](=O)[O-])c3=N2)C=C1,-17%,8%,-1.7,5%,2.7%,-13%,-7.1
CCOC(=O)c1sc(C)c2c1NC1(CCCCC1)NC2=O,13%,12%,2.4,12%,11%[38.3 µM],32µM*,-1.6
Cn1nc(C(C)(C)C)c([N+](=O)[O-])c1C(=O)Nc1ccccc1,-7%[15.4 µM],-3%,5.4,13%,0.1%,-21%,3.0
CCCOc1cccc(C(=O)NCCNC(=O)c2ccco2)c1,-3%[15.4 µM],7%,-2.6,13%,-1.9%,-3.2%,-4.9
COc1ccc(NC(=O)c2oc3ccccc3c2NC(=O)COc2ccccc2OC)c(OC)c1,?,1%,0.9,3%,14%[38.3 µM],50%,-3.0
O=C(COC(=O)c1sc2ccccc2c1Cl)NCC1CCCCC1,?,-5%,-1.4,15%,11%,-7.7%,-0.4
CCCC1=C(C(=O)OCC)C(c2cccs2)C(C#N)=C(N)O1 (stereo not drawn),-21%,-21%,2.9,-8%,6.5%,-1.8%,1.0
OC1(C#CCN2CCOCC2)CCCCC1,13%,-7%,6.6,3%,0.7%,-6.7%,3.9
CSCCC(NC(=O)COc1ccccc1)C(=O)NCc1cccs1 (stereo not drawn),?,-3%,2.0,1%,-0.1%,-4.4%,-1.0
CCOC(=O)c1ccc(-n2c(-c3ccco3)nc3ccccc3c2=O)cc1,-26%,2%,1.7,4%,0.7%,2.2%,-2.0
CN(Cc1ccccc1)C(=O)CN1C(=O)NC2(CCCc3sccc32)C1=O (stereo not drawn),-23%,.,.,.,2.4%,0.8%,-3.2
O=C(CSc1ccc2c(c1)OCCO2)NC(=O)Cc1ccccc1,-26%,8%,2.4,-4%,2.1%,-1.0%,-2.0
Cc1c(NS(=O)(=O)c2cc(C(=O)NCCc3ccc(F)cc3)cc(Cl)c2Cl)c(=O)n(-c2ccccc2)n1C,-46%[inhibitor],-14%,.,.,2.8%,3.5%,-3.0
COC(=O)c1ccc2c(=O)n(CCCCCC(=O)NCc3ccc4c(c3)OCO4)c(=O)[nH]c2c1,-36%,3%,3.6,-7%,4.7%[38.3 µM],-9.8%,1.0
Cc1ccc(C(=O)NCCSC2CCCCC2)cc1S(=O)(=O)Nc1ccccc1,1%,?,3.3,18%,-4.0%[38.3 µM],0.0%,0.1
COC(CN1C(=O)C(=O)/C(=C(/O)c2ccccc2)C1c1ccccn1)OC (stereo not drawn),1%,0%,-5.5,3%,2.9%,1.3%,0.6
COc1ccc(NC(=O)/C(Cl)=C(/Cl)S(=O)(=O)Cc2ccccc2)cn1,0%,?,1.6,-14%,-4.3%,9.2%,1.2
COc1ccc(S(=O)(=O)N2CCC(C(=O)N3CCCC3)CC2)cc1,-14%,3%[15.4 µM],4.4,3%,1.3%,-0.9%,-1.2
COc1ccc(/C=C2\C(=O)c3ccccc3OC2c2ccccc2)cc1 (stereo not drawn),-3%,0%,-0.5,6%,11%,-1.2%,-2.7
O=C(CCNC(=O)c1ccc(Cl)cc1)Nc1ccc(S(=O)(=O)N2CCCCC2)cc1,-6%[15.4 µM],3%,.,.,?,.,-6.2
Cc1cccc(C(=O)N/C(=C\c2ccc(C)o2)C(=O)O)c1,13%,3%,5.1,18%,-1.1%,1.5%,-6.8
CCc1cc(C(=O)N2CCCc3ccccc32)sc1C,5%,-6%,.,.,1.6%,-0.5%,-1.8
Cc1ccnc2nc(C(=O)Nc3nnc(CC(C)C)s3)nn12,?,-16%,0.3,?,1.9%,-0.4%,-3.5
COC(=O)[C@@H]1C[C@]2(Br)c3ccccc3N(S(=O)(=O)c3ccccc3)[C@@H]2N1C(=O)OC,-52%[inhibitor],-2%,.,.,0.1%,0.9%,-3.0
COC(=O)C(=Cc1ccc(-c2ccsc2C(=O)OC)o1)C(=O)OC,1%[15.4 µM],-6%,0.5,-3%,-0.7%,.,0.7
Cc1nn2c(NCc3cccnc3)c3c(nc2c1-c1ccccc1)CCC3,?,?,0.1,-3%,-1.7%,.,0.4
CCCCCCCC1CC(/C(C)=N/NC(N)=O)OC1=O (stereo not drawn),-3%[15.4 µM],7%,2.8,25%,-1.4%,0.6%,-5.5
O=C(Nc1cccc(C(=O)N2CCN(Cc3ccccc3)CC2)c1)c1ccccc1,4%,-1%,1.1,-5%,0.4%,-0.5%,-3.2
CC(C)(C)C(=O)Nc1ccc(Cc2ccncc2)cc1,-1%,7%,.,.,0.5%,.,-4.8
CCN(Cc1ccccc1)C(=O)c1oc2ccc(S(=O)(=O)N3CCOCC3)cc2c1C,?,?,0.0,14%,0.7%,0.1%,2.7
CCOC(=O)/C=C/C(=O)Nc1ccc(S(=O)(=O)Nc2cc(OC)nc(OC)n2)cc1,11%,.,.,.,3.0%,-2.0%,-0.8
Cc1cccc(N(CC(=O)N/N=C/c2ccc(C(=O)O)cc2)S(=O)(=O)c2ccccc2)c1C,4%,-2%,.,.,-0.9%,3.2%,-2.9
Cc1ccccc1OCCC(=O)OCC(=O)Nc1ccc(N2CCOCC2)cc1,-4%[15.4 µM],-1%,.,5%,-1.0%,1.5%,1.6
O=C1CN(C(=O)c2ccccc2Br)C(c2ccc(F)cc2)c2cc(F)ccc2N1 (stereo not drawn),-7%,-11%,8.7,-3%,13%,2.5%,-3.4
COc1ccc(NCCC(O)c2ccc(Cl)cc2)cc1 (stereo not drawn),6%[15.4 µM],-11%,3.3,-6%,1.3%,-1.1%,-0.4
CCC(C)(C)NC(=O)C(c1cccnc1)N(C(=O)c1csnn1)c1ccc(C)cc1 (stereo not drawn),-2%,4%,-0.9,15%,0.7%,0.4%,-4.3
O=C(COC(=O)c1ccc(Cl)nc1)Nc1ncc(Cl)cc1Cl,-1%[15.4 µM],11%,2.8,14%,0.5%,.,0.9
c1ccc(CCc2ccccc2-c2nc(-c3ccccn3)no2)cc1,18%,-34%,5.1,-13%,1.8%,-3.2%,-3.2
Cc1cc(O)c(N=Nc2ccc(C(=O)O)cc2)cc1C,-44%,-8%,.,.,-0.7%,.,-2.7
CCCCCOc1ccc(CN2CCOCC2)cc1Cl,-8%,6%,7.4,-3%,7.5%,1.1%,-2.6
Cc1oc(-c2cccs2)cc1C(=O)N1CCC(C)(C(=O)NS(=O)(=O)C2CC2)C1 (stereo not drawn),.,.,.,.,-0.1%,-16%,-3.8
O=C(CN(Cc1ccc2c(c1)OCO2)C(=O)CNS(=O)(=O)c1ccccc1)NCc1ccco1,-23%,3%,3.6,17%,0.3%,0.9%,-2.5
CC1CCN(C(=O)COC(=O)c2ccc3c(c2)OCO3)CC1,-6%[15.4 µM],7%,-5.4,10%,1.7%,-10%,-1.5
CCOc1ccc(NC(=O)Cn2nnc(-c3ccc(C(N)=O)cc3)n2)cc1S(=O)(=O)N1CCCC1,-9%,-2%,.,.,-0.6%,0.6%,-2.0
CSc1ncccc1C(=O)N1CCCC(CCC(=O)NCc2ccccc2F)C1 (stereo not drawn),?,-1%,-3.4,4%,0.1%,0.0%,0.2
CC(C(=O)c1ccccc1)[n+]1cccc(Br)c1 (stereo not drawn),6%[15.4 µM],28%,1.3,15%,-2.5%&3.8%,-1.5%&0.5%,-4.1
CCCOc1ccc(C(=O)NCCCn2ccnc2)cc1,-2%,-5%,3.2,2%,1.6%,-0.9%,0.8
Cc1cccc(OCC(=O)Nc2ccc3c(c2)OCCO3)c1,0%,-9%,-3.2,7%,-1.9%,2.6%,0.1
CCOc1ccc(C(=O)N2CCN(S(=O)(=O)c3ccc4c(c3)OCCO4)CC2)cc1OCC,8%[15.4 µM],-14%,.,.,-0.8%,1.2%,-8.1
COc1cccc(/C=N/NC(=O)CNC(=O)/C=C\c2ccccc2)c1O,-7%,6%,.,-5%,0.8%,1.2%,3.3
CC(=O)Nc1ccc(N=Cc2ccc(OCc3ccccc3)cc2)cc1,3%,-5%,5.9,0%,-0.6%,-1.1%,-0.2
CC1(C(=O)NS(=O)(=O)c2cccc(F)c2)CCN1C(=O)CCC1CCCC1 (stereo not drawn),.,.,.,.,-0.9%,0.4%,-1.7

# Profiles, looked up by structure. Order of values: gsp ag, gsp antagonist, Menin MLL FP FL, Sfp PPTase inh, PINK1 expr mod, ClpP mod, D2 ag
# Shown for Cc1cccc(OCC(=O)Nc2ccc3c(c2)OCCO3)c1 : 0%, -9%, -3.2, 7%, -1.9%, 2.6%, 0.1
# Shown for CCOc1ccc(NC(=O)Cn2nnc(-c3ccc(C(N)=O)cc3)n2)cc1S(=O)(=O)N1CCCC1 : -9%, -2%, ., ., -0.6%, 0.6%, -2.0
